Bioassay records: PubChem BioAssay, National Center for Advancing Translational Sciences (NCATS)
HTT prom inh: inhibitors of huntingtin promoter activity. HEK293 HTT promoter firefly luciferase reporter (activity 0% = vehicle and -100% = no light), 24 h. Potency, µM (series often up to 57.5 µM), without a hit: at the highest dose activity change, negative = inhibition, most hits filed as inhibitors. hit rate 0.93% among 48,000. AID 1508623; active = well fitted inhibition curve with a large enough effect; inconclusive = small, poorly fitted or top-dose-only effect; inactive = no such curve, though single readings can be large or run the other way; note: nearly all actives have a fitted effect of over 50% in size
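Luminescence was read after Dual-Glo reagent and a 10 min room-temperature incubation. Values were normalized to vehicle (0% activity) and zero RLU (-100% activity). Reporter HEK293 cells had been exposed to compounds (up to 57.5 uM final) for 24 h.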
PMP22 txn: modulators of PMP22 gene transcription in S16 Schwann cells; S16 Pmp22-F2sN Schwann cells (luciferase reporters placed in the Pmp22 gene), FLuc/NLuc coincidence luminescence, 24 h; hit rate 2% among 43,000; Potency, µM (titrated, usually from 57.5 µM), for the others: at the highest dose activity change, negative = inhibition, usual class: inhibitors; active = clear falling dose curves in both reporters; inconclusive = both reporters move, but less clearly or upward; inactive = either reporter flat; the % is the NLuc reporter signal; note: % is set by controls: 0 for no effect and ±100 for the full control effect; some results filed as inactive show a strong effect at the top dose
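qHTS, 1536-well. Cells seeded, compounds added by pin tool, 24 h 37C. Nano-Glo reagent 1 (lysis/FLuc), 10 min RT, read; Stop&Glo, 10 min RT, read NLuc.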
* = called active by the depositor; ? = inconclusive; · = no result given; & = joins results of further samples; [ ] = dose if it differs, or a comment. Potency is the fitted concentration of half-maximal effect.

SMILES	HTT prom inh	PMP22 txn
CCOC(=O)c1ccc(Oc2nc(C)nc3c2oc2ccccc23)cc1	-18%	-4%
CCCCCOC(=O)CSc1nc2sc3c(c2c(=O)n1Cc1ccccc1)CC(C)(C)OC3	-12%	-15%
CCc1cc(C(=O)Nc2sc(C)c(CC)c2C#N)no1	38%	-2%
COc1cc(C(=O)NC2CCN(C)CC2)ccc1Nc1ncc2c(n1)N(C1CCCC1)CCC(=O)N2C(C)C	-14%	·
CCOc1ccc(NC(=O)N(C)CCc2c(C)nn(C)c2C)cc1	6%	4%
Cc1c2cnn(-c3ccccc3)c(=O)c2c(C)n1C(C)C(=O)Nc1ccc(Br)cc1F (stereo unspecified)	14%	2%
CSc1ccc(CCNS(=O)(=O)c2cc(-c3cc(C)no3)ccc2C)cc1	?	1%
CC(=O)Nc1ccc(S(=O)(=O)NC2(C(F)(F)F)NC(=O)N(c3ccc(C)cc3)C2=O)cc1 (stereo unspecified)	-1%	20%
COc1ccc(N2CCN(c3oc(/C=C/c4ccc(F)cc4)nc3C#N)CC2)cc1	38%[activator]	-13%
CCN(c1cccc(C)c1)S(=O)(=O)c1ccc(-n2cccn2)cc1	?	-28%
CC(Nc1ccc(-c2nc(-c3cccnc3)no2)cc1[N+](=O)[O-])c1ccccc1 (stereo unspecified)	-5%	-8%
O=C(Nc1c(O)c2ccccc2oc1=O)c1cccc(F)c1	-17%	54%
CSc1ccc(CCNC(=O)CCc2c(C)nc3ncnn3c2C)cc1	-11%	18%
CCCCOc1ccc(C(=O)NCCS(=O)(=O)N2CCN(c3ccccc3OC)CC2)cc1	?	?
COCCNC(=O)CSc1nc2ccccc2nc1Cc1ccc(C)cc1	-11%	-29%
CCC(=O)N1c2ccccc2CC1C(=O)NCCCN1CCN(c2cc(C)ccc2C)CC1 (stereo unspecified)	-21%	?
OCCC#Cc1nc(-c2ccc(F)cc2)c(-c2ccncc2)n1CCCc1ccccc1	-15%	·
CC(=O)Nc1nonc1-c1nnc(SCC(=O)Nc2cccc(C)c2C)n1-c1ccccc1	-15%	15%
CN1[C@H]2CC(OC(=O)[C@@H](CO)c3ccccc3)C[C@H]1[C@H]1O[C@H]12 (stereo partly specified)	3%[25.2 µM]	·
Cc1ccn2c(Nc3ccc4c(c3)OCCO4)c(-c3ccc(Cl)s3)nc2c1	22%	-9%
Cc1ccn2c(NC(=O)c3cccc(Cl)c3)c(-c3ccccc3)nc2c1	6%	10%
O=C(Cn1ncn2nc(-c3cccs3)cc2c1=O)NCc1cccc(Br)c1	-13%	8%
CS(=O)(=O)c1ccc([C@@H](O)[C@@H](CO)NC(=O)C(Cl)Cl)cc1	-5%&-6%	·
COc1ccc(-c2nc3scc(CCNC(=O)c4cccc(Br)c4)n3n2)cc1	-18%[11.5 µM]	?
CCc1cnc2c(c1SCC(=O)c1ccc(Cl)cc1)c(=O)n(C)c(=O)n2C	-18%	-20%
Cc1cc2nn(-c3ccc(F)cc3)nc2cc1NC(=O)c1ccc(OC(C)C)cc1	5%	-26%
Cc1ccc(N2CCN(Cc3nnc(-c4ccc5c(c4)OCO5)o3)CC2)c(C)c1	-5%	18%
Cc1ccc(NC(=O)Cn2c(C)cc(C)c(C#N)c2=O)cc1F	11%	-10%
Cc1ccc(NC(=O)c2ccc(CNS(=O)(=O)c3ccc4c(c3)C(C)(C)C(=O)N4C)cc2)cc1F	?	-20%
COc1ccc(NC(=O)CN(c2ccc(C)cc2)S(=O)(=O)c2cccs2)cc1	-3%	-9%
COc1ccc(-n2c(=O)c3ccc(C(=O)NCc4ccc(C)cc4)cc3n(CC(=O)Nc3cccc(F)c3)c2=O)cc1	-20%	?
COc1ccc(NC(=O)c2nnn(CC(=O)Nc3c(C)cc(C)cc3C)c2N)cc1OC	-6%	11%
COc1cccc(NC(=O)c2csc3c2CCCCC3)c1	19%	?
Nc1ncnc2c1ncn2[C@@H]1O[C@H](CO)[C@@H](O)[C@@H]1O	0%	·
CC(=O)Nc1nonc1-c1nnc(SCC(=O)Nc2cc(C)ccc2C)n1-c1ccccc1	-27%	-8%
COc1ccccc1NC(=O)Cn1nc(-c2ccc(C)cc2)c2c(c1=O)CCCC2	-22%	0%
CCc1ccccc1NC(=O)Cn1c2ncccc2c(=O)n1-c1ccccc1	-27%	-6%
CCOc1ccc(CNC(=O)c2cccc(NC(=O)N3CCSc4ncccc43)c2)cc1OC	?	?
CCCCCCCc1ccc(CCc2cccc(O)c2C(=O)O)cc1	-4%	·
Cc1ccc(CNC(=O)Cn2cc(S(=O)(=O)Cc3cccc(Cl)c3)c3ccccc32)cc1	-19%	-30%
COc1ccccc1NC(=O)c1sc2nc3c(c(C(F)(F)F)c2c1N)CN(C(C)=O)CC3	-25%	-15%
CCOc1ccccc1CNS(=O)(=O)c1cc2c(cc1C)NC(=O)CO2	-2%	-13%
CCc1ccc(OCC(=O)N(Cc2ccc(C(C)C)cc2)C2CCS(=O)(=O)C2)cc1 (stereo unspecified)	?	-5%
Cc1c(C(=O)OC2CCCCC2)[nH]c2c1C(=O)CC(c1ccccc1Cl)C2 (stereo unspecified)	-22%	6µM*
NC(=O)N1c2ccccc2CC(=O)c2ccccc21	2%&-12%	·
COc1ccc(C)cc1NC(=O)C(Cc1ccccc1)NS(=O)(=O)c1ccc(Br)s1 (stereo unspecified)	-9%	?
Cc1ccc(Cn2ccnc2SCC(=O)NCc2ccccc2)cc1	-18%	3%
COc1ccc(OC)c(NC(=O)CSc2nnc3ccc4ccccc4n23)c1	-8%	?
COc1ccc(C2=Nc3ccc(OC(F)(F)F)cc3NC(c3cccnc3)=N2)cc1	?	4%
CCOc1ccc(NC(=O)c2ccc3snnc3c2)cc1	13%	-18%
(further entries)
SMILES	HTT prom inh	PMP22 txn
COc1ccc(Cn2c(C(=O)O)c(CNCC(C)c3ccccc3)c3ccc(OC)cc32)cc1 (stereo unspecified)	-32%	?
Cc1ccc(C)c(CN2C(=O)c3ccccc3Sc3ccc(C(=O)NCCCOC(C)C)cc32)c1	-17%	?
CCc1ccccc1NC(=O)Cn1cc(S(=O)(=O)N2CCCC2)c(S(=O)(=O)N2CCCC2)c1	3%[11.5 µM]	15%
Cc1cc2n(n1)CCCN2C(=O)Nc1ccccc1C(F)(F)F	5%	-2%
CCC(Sc1nnc(C)n2c1cc1sccc12)C(=O)Nc1ccccc1F (stereo unspecified)	-1%	?
CCn1nc(C)c2c(-c3ccccc3)cc(=O)n(C(C)C(=O)Nc3ccc(OC)c(OC)c3)c21 (stereo unspecified)	-30%	?
C#CC(C)(CC)NC(=O)Cn1nnc(-c2ccc(OCc3ccccc3Cl)cc2)n1 (stereo unspecified)	-34%	-23%
COCCNC(=O)CSc1nc(-c2ccc(C)cc2)[nH]c1-c1ccc(OC)cc1	-2%	10%
COc1ccc(N2CC(NC(=O)C3CC3)CC2=O)cc1OC (stereo unspecified)	-12%	-3%
Cc1cc(C)cc(N2C(=O)CSC23C(=O)N(CC(N)=O)c2ccccc23)c1 (stereo unspecified)	9%	?
CCOc1ccc(OCC)c(NS(=O)(=O)c2cc(-c3onc(C)c3C)ccc2OC)c1	3%	-19%
O=C(Nc1ccccc1Br)N1CCC(CN2CCCC2)CC1	-18%	10%
Cc1c2cnn(CC(=O)NCc3ccc(F)cc3)c(=O)c2c(C)n1Cc1cccc(Cl)c1	?	-26%
COc1ccc(-c2nc(CSc3nncn4c3cc3sccc34)c(C)o2)cc1OC	5%	1%
O=C(CSc1nc(=O)n(CCN2CCOCC2)c2c1CCC2)Nc1ccc(Cl)c(Cl)c1	-33%	?
CC1CCCN(C(=O)CSc2c3c(nc4cc(Cl)ccc24)CCCC3)C1 (stereo unspecified)	-14%	?
CCc1ccc(CN(C(=O)Nc2cccc(Cl)c2)c2ccccn2)cc1	13%	?
CCCSc1nc(-c2ccccc2)[nH]c1S(=O)(=O)c1ccc(C)cc1	?	?
COc1ccc(CCNC(=O)c2ccc3c(c2)N(Cc2ccccc2)CCS3)cc1OC	?	?
CCOc1ccc(-c2nc3c(c(SCC(=O)N4CCCCC4)n2)Cc2ccccc2O3)cc1	-8%	-2%

Whole records, looked up by structure. Values in the order: HTT prom inh | PMP22 txn
CCOc1ccc(OCC)c(NS(=O)(=O)c2cc(-c3onc(C)c3C)ccc2OC)c1 reads 3% | -19%
COc1ccc(CCNC(=O)c2ccc3c(c2)N(Cc2ccccc2)CCS3)cc1OC reads ? | ?
CCc1ccc(CN(C(=O)Nc2cccc(Cl)c2)c2ccccn2)cc1 reads 13% | ?
O=C(CSc1nc(=O)n(CCN2CCOCC2)c2c1CCC2)Nc1ccc(Cl)c(Cl)c1 reads -33% | ?
CCOc1ccc(-c2nc3c(c(SCC(=O)N4CCCCC4)n2)Cc2ccccc2O3)cc1 reads -8% | -2%

(further entries)
SMILES	HTT prom inh	PMP22 txn
Cc1cccc(-n2c(Cc3ccccc3)nnc2SCc2nc(-c3cccs3)no2)c1	?	-26%
CCCCOc1ccc(C(=O)NCCc2csc(-c3ccc(OC)cc3)n2)cc1	22µM*	-76%
CCOc1ccc(OCC)c(NS(=O)(=O)c2ccc(-c3coc(C)n3)cc2)c1	?	?
Cc1ccc(C)c(N2CCN(C(=O)CCc3nnc4n(CC(C)C)c(=O)c5ccccc5n34)CC2)c1	0%	-14%
Cc1oc2ncn(CC(C)C)c(=O)c2c1C(=O)N(CCN(C)C)Cc1ccccc1	9%	1%
COc1ccc(C)cc1NC(=O)CCNC(=O)Cn1ccc2ccccc2c1=O	-15%	24%
CCOc1ccc(-c2cnc(NCc3ccc(OC)cc3OC)n2C)cc1	-7%	-14%
COc1ccccc1CCNC(=O)c1cc2c(=O)n3cccc(C)c3nc2n1C	32%[activator]	-10%
CCN(CC)CCCNC(=O)c1cn(CC(C)C)c(=O)c2c1c1ccccc1n2C	11%	-6%
O=C1Nc2ccc(S(=O)(=O)Nc3ccccc3O)c3cccc1c23	-9%	9%
COc1cc(Cl)c(NC(=O)CN(C)S(=O)(=O)c2ccc3[nH]c4c(c3c2)CCCC4)c(OC)c1	?	?
CCOc1ccc(C(=O)NCCSc2c(C)[nH]c3ccccc23)cc1OCC	?	-14%
NC(CO)C(=O)NNCc1ccc(O)c(O)c1O (stereo unspecified)	-4%&-13%	·
Cc1cccc(OCCCCn2c(C3CC(=O)N(c4ccccc4Cl)C3)nc3ccccc32)c1 (stereo unspecified)	?	-16%
Cc1ccc(CNC(=O)c2cnn(-c3cccc(C)c3)c2C2CCN(C(=O)OC(C)(C)C)CC2)cc1	?	?
CCOC(=O)c1c(C)[nH]c(C)c1S(=O)(=O)N1CCC(C(=O)Nc2ccc(F)cc2F)CC1	-26%	?
CC(C)Oc1ccc(CNC(=O)c2cccc(NC(=O)c3nsc4ccccc34)c2)cc1	-1%	?
CCn1cc(C(=O)NCCc2ccc(Cl)cc2)c(=O)c2cc(S(=O)(=O)N3CCCCCC3)ccc21	-10%	-4%
Cc1ccc(-n2c(=O)c3c(C)c(C(=O)N(C)C)sc3n(Cc3ccccc3C)c2=O)cc1C	10%	-11%
COc1cc(-c2noc(-c3cc(C(C)C)[nH]n3)n2)cc(OC)c1OC	12%	?

Another view of some results above:
Second line of a record – HTT prom inh	PMP22 txn
CCCSc1nc(-c2ccccc2)[nH]c1S(=O)(=O)c1ccc(C)cc1
 : ?	?
COc1ccc(CCNC(=O)c2ccc3c(c2)N(Cc2ccccc2)CCS3)cc1OC
 : ?	?
CCOc1ccc(-c2nc3c(c(SCC(=O)N4CCCCC4)n2)Cc2ccccc2O3)cc1
 : -8%	-2%
Cc1cccc(-n2c(Cc3ccccc3)nnc2SCc2nc(-c3cccs3)no2)c1
 : ?	-26%
CCCCOc1ccc(C(=O)NCCc2csc(-c3ccc(OC)cc3)n2)cc1
 : 22µM*	-76%
CCOc1ccc(OCC)c(NS(=O)(=O)c2ccc(-c3coc(C)n3)cc2)c1
 : ?	?

Next section.
SMILES	HTT prom inh	PMP22 txn
CCCN(c1ccccc1F)S(=O)(=O)c1ccc2c(c1)C(C)(C)C(=O)N2C	?	-8%
Cc1nn(CCC(=O)NCc2ccc(N(C)C)cc2)c(=O)c2nn(-c3ccccc3)c(C)c12	-6%	8%
Cc1ccc(NC(=O)CCCn2c(=O)c3cccn3c3ccccc32)cc1Cl	-12%	-31%
CN(C(=O)c1cc2c(Cl)nc3ccccc3c2s1)c1cccc(C(F)(F)F)c1	4%	?
CCCn1c2ccccc2c2cnn(CC(=O)N3CCCC(C(=O)OCC)C3)c(=O)c21 (stereo unspecified)	-20%	-20%
Cc1c(C(=O)NCc2ccc(OC(C)C)cc2)sc2ncnc(N(C)C3CCCCC3)c12	-27%	?
O=C(Nc1ccc(Br)cc1)C1CCN(S(=O)(=O)c2cccc3nsnc23)CC1	?	-8%
CCOc1ccc(NC(=O)c2c(Nc3ccccc3C)sc(C(=O)c3ccccc3)c2N)cc1	?	?
CCOc1ccc(CCNC(=O)c2cc3c(=O)n(C)c4ccccc4c3s2)cc1OCC	-18%	-7%
